E coli growth: E. coli growth inhibition, primary screen, OD600. Escherichia coli growth, 23 h; active compounds read low. OD600 absorbance (concentration not given with the values). 330,000 compounds, 0.21% hits;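 active = OD600 absorbance below the run mean of sample wells minus 3.6 SD, in any replicate, cut at about 0.56 in these data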;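 also: stock transfer was 300 nL into about 60 µL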
HNF4A DNA FP: change in binding of human HNF4A to DNA, primary screen, biochemical, fluorescence polarization, FITC-DNA. Hepatocyte nuclear factor 4-alpha (Homo sapiens), P41235. 360,000 compounds, 0.3% hits. 1 h. activity change, % at 10 µM; in the data active = activity change above about 30%, passing the limit was not always enough;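 also: controls were the assay level and a saturating level of protein; the project sought stronger binding though the title names inhibitors; some compounds called inactive have numbers as strong as hits; positive values seem to mean higher polarization but the record does not say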
UCH37 DUB inh: inhibitors of human UCH37 deubiquitinase, primary screen, biochemical, Ub-AMC cleavage, fluorescence; purified proteasome/UCH37; inhibition, % (no concentration beside the values); 330,000 compounds, 0.33% hits; AID 588478, 2011;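 active = mean of two replicates above 20%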;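 also: 0% = compound-free wells with enzyme and 100% = wells lacking proteasome; stock transfer was 100 nL into about 20 µL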
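Material: Human UCH37 enzyme supplied as purified proteasome complex | Schedule: 30 min compound-proteasome preincubation then 25 min substrate reaction, room temperature | Detection: AMC fluorescence from Ub-AMC cleavage, excitation 355 nm, emission 460 nm | Benchmarks: Wells without proteasome as full block, compound-free enzyme plus substrate as uninhibited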
Vif A3G: inhibitors of Vif binding to APOBEC3G peptide, primary screen, biochemical, TR-FRET, GST-Vif 1-94, biotin-A3G peptide, dose response retest (AID 1117319); 260,000 compounds, 0.57% hits; Virion infectivity factor (Human immunodeficiency virus type 1 group M subtype B (isolate …; inhibition, %; hits with a dose series show IC50 in µM; TR-FRET GST-Vif / biotin-A3G peptide binding; higher % means a stronger effect; test concentration not given here; strong numbers were not always called active;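 active = above the screen mean plus three standard deviations and confirmed in dose response; inconclusive = results disagree or hit not tested in dose response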;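 also: Vif residues 1-94 fused to GST binding biotinylated APOBEC3G peptide 110-148; 0% = full assay without inhibitor and 100% = GST in place of GST-Vif; retest series ran down from 100 µM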
LANA-H2B inh: blockers of LANA interaction with H2A/H2B – biochemical, FP readout, HTS, primary screen | inhibition, % (concentration not given with the values) | 320,000 compounds, 0.6% hits | cell-free LANA-H2A/H2B peptide, fluorescence polarization; in the data active = inhibition mostly above about 10%, no sharp cut-off; inactive = mostly below about 6.7%;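 also: stock transfer was 7.5 nL into about 10 µL; 0% = median of vehicle wells and 100% = median of positive control wells; one replicate is shown; the record names a cut of 25% in any replicate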
Target sequence (Q9QR71 whole entry, looked up): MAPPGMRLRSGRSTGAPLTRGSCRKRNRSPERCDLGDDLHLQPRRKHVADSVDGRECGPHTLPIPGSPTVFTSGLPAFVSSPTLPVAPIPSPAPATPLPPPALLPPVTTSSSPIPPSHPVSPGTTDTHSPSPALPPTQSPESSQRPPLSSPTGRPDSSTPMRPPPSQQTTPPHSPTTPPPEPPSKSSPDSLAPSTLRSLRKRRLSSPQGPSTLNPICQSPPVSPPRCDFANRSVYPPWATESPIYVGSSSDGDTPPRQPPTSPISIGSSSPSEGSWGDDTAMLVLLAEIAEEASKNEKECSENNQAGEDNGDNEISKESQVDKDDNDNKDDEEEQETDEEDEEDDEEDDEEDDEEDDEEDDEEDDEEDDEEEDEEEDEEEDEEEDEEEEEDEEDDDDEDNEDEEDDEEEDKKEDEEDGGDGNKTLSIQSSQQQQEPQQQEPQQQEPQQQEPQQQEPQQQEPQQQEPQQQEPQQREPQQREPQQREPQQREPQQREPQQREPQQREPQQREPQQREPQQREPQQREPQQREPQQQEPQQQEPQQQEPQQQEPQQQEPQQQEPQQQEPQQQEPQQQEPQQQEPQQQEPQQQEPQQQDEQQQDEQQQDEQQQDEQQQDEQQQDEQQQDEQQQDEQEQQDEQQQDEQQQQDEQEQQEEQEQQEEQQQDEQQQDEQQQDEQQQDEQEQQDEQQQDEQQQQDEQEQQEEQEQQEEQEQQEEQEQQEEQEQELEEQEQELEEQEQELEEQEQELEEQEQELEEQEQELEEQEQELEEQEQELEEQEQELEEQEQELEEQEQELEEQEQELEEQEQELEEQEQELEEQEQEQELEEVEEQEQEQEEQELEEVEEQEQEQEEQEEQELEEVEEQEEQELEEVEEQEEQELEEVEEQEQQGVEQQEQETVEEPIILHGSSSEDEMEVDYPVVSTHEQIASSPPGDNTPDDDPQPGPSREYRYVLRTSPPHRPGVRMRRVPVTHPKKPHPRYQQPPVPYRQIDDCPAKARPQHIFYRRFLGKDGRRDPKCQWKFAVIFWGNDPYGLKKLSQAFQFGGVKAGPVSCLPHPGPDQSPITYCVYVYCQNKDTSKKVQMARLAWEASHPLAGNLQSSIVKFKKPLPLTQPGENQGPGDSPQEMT
Bfl-1 A1 inh: caspase 3/7 activation in MEF A1-2A-BIM cells, primary screen, A1 inhibitor project, cell-based, luminescence, HTS | Caspase-Glo 3/7 luminescence, 3 h; percent of clofoctol response, vehicle zero | caspase activation, % (test concentration not listed) | 330,000 compounds, 0.066% hits;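 active = over half of replicate activation scores above 10%, or exactly half above 10 with the replicate mean above 10; inconclusive = replicate mean below 10 yet half the replicates above 10; inactive = over half of replicates below 10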;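 also: wells of about 30 µL received 50 nL stock; many hits fall short of the cut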
Beta2AR agonist: beta2AR agonists driving receptor internalization, primary screen, cell-based, FAP fluorogen, flow cytometry; Am2.2-beta2AR cells; reference of the scale not given here; response, % (no concentration beside the values); 340,000 compounds, 0.43% hits; AID 504454, 2011;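 active = response above a set limit, near 3 SD of response in nonfluorescent compounds, cut at about 42% in these data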;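 also: stock transfer was 100 nL into about 11 µL; a reference agonist was the positive control; negative values mostly stem from fluorescent compounds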
Starred values were filed as active, the others as inactive; & = joins results of further samples.

COc1ccc(C2SCC(=O)N2CCc2ccc(OC)c(OC)c2)cc1 (stereo not drawn) was read as E coli growth 0.71, HNF4A DNA FP 2.1, UCH37 DUB inh 0.2, LANA-H2B inh -3.1, Bfl-1 A1 inh -0.2 and Beta2AR agonist -6.
`COc1ccc(CC(=O)N2CCc3cc(OC)c(OC)cc3C2O)cc1OC` (stereo not drawn) gave HNF4A DNA FP -4.5, Vif A3G -6%, LANA-H2B inh -1.9, Bfl-1 A1 inh 0.1 and Beta2AR agonist -2.
For CCc1ncc(C(O)c2cccc3ccccc23)n1C (stereo not drawn) the results were E coli growth 0.68, HNF4A DNA FP 1.0, UCH37 DUB inh 1.7, Vif A3G inconclusive, LANA-H2B inh -0.9, Bfl-1 A1 inh 0.4 and Beta2AR agonist 6.
For CCn1c(CCn2c3ccccc3c3ccccc32)n[nH]c1=S the results were E coli growth 0.68, HNF4A DNA FP 0.0, UCH37 DUB inh 0.1, Vif A3G inconclusive, LANA-H2B inh -5.5, Bfl-1 A1 inh -0.2 and Beta2AR agonist 6.
For CCCCN1C2=NCCCN2c2ccccc21 the results were E coli growth 0.68, HNF4A DNA FP 1.4, UCH37 DUB inh -2.0, Vif A3G 1%, LANA-H2B inh -2.8, Bfl-1 A1 inh 0.8 and Beta2AR agonist 1.
Cc1ccc(S(=O)(=O)N2CCOCC2)cc1NC(=O)COC(=O)c1n[nH]c(=O)c2ccccc12 was read as HNF4A DNA FP -3.1, Vif A3G -5%, LANA-H2B inh 1.3, Bfl-1 A1 inh 0.8 and Beta2AR agonist -4.
Screening COc1ccc(-c2ccc3ccccc3n2)cc1OC returned E coli growth 0.7, HNF4A DNA FP -4.4, UCH37 DUB inh -48, Vif A3G -7%, LANA-H2B inh -0.8, Bfl-1 A1 inh -2.6 and Beta2AR agonist -4.
For CCCCCNCc1cccn1C the results were E coli growth 0.68, HNF4A DNA FP -1.2, UCH37 DUB inh 3.4, Vif A3G -1%, LANA-H2B inh -3.2, Bfl-1 A1 inh -1.2 and Beta2AR agonist 12.
For COc1ccccc1Nc1nc2c(s1)CCC2 the results were E coli growth 0.76, HNF4A DNA FP 5.8, UCH37 DUB inh 5.9, Vif A3G 9%, LANA-H2B inh 3.7, Bfl-1 A1 inh -0.6 and Beta2AR agonist 7.
`Cc1cccc(/C=N/NC(=O)c2ccncc2)n1` gave HNF4A DNA FP 0.2, LANA-H2B inh -2.2, Bfl-1 A1 inh -0.2 and Beta2AR agonist -3.
`CCOC(=O)C(NC(=O)c1ccccc1)(OCc1ccccc1)C(F)(F)F` (stereo not drawn) gave E coli growth 0.7, HNF4A DNA FP 1.5, UCH37 DUB inh 4.7, LANA-H2B inh 2.7, Bfl-1 A1 inh 0.8 and Beta2AR agonist 1.
COc1ccc2[nH]cc(CCNC(=O)C3CCCNC3=O)c2c1 (stereo not drawn) was read as E coli growth 0.72, HNF4A DNA FP 4.1, UCH37 DUB inh 2.2, Vif A3G 2%, LANA-H2B inh 1.7, Bfl-1 A1 inh 0.5 and Beta2AR agonist 17.
Cc1ccc(C(=O)N2CCCC(CCC(=O)N3CCN(c4ccccn4)CC3)C2)cc1C (stereo not drawn) was read as E coli growth 0.67, HNF4A DNA FP 4.7, UCH37 DUB inh 5.6, LANA-H2B inh 4.0, Bfl-1 A1 inh -0.6 and Beta2AR agonist 6.
Screening CCC(C(=O)Nc1cc(C)cc(C)n1)c1ccccc1 (stereo not drawn) returned E coli growth 0.61, HNF4A DNA FP 1.4, UCH37 DUB inh -0.8, LANA-H2B inh 1.4, Bfl-1 A1 inh 0.8 and Beta2AR agonist 0.
O=C(NCc1ccc(Cl)cc1)c1ccc(COCC(F)(F)F)o1 was read as E coli growth 0.72, HNF4A DNA FP 3.4, UCH37 DUB inh 1.6, Vif A3G -3%, LANA-H2B inh 8.3, Bfl-1 A1 inh 0.5 and Beta2AR agonist -2.
Screening Cn1c(=O)c2c(O)c(C=NCc3ccccc3)c(=O)n(C)c2n(C)c1=O returned E coli growth 0.64, HNF4A DNA FP -0.9, UCH37 DUB inh 6.0, LANA-H2B inh -0.8, Bfl-1 A1 inh 0.5 and Beta2AR agonist -3.
For CC(C)N1C(=O)C(=O)N(CC(=O)N2c3ccccc3NC(=O)CC2C)C1=O (stereo not drawn) the results were E coli growth 0.69, HNF4A DNA FP -3.2, UCH37 DUB inh 1.1, Vif A3G -3% and Beta2AR agonist -4.
`Cn1c(Cc2cccs2)nnc1SC/C=C/c1ccccc1` gave E coli growth 0.75, HNF4A DNA FP -3.0, UCH37 DUB inh 2.3, Vif A3G 14%, LANA-H2B inh -1.4, Bfl-1 A1 inh -0.3 and Beta2AR agonist -2.
Screening CCCCOC(=O)CNc1nnc(SCC(=O)OCC)[nH]c1=O returned E coli growth 0.73, HNF4A DNA FP -0.9, UCH37 DUB inh 6.9, Vif A3G 1%, LANA-H2B inh 0.6, Bfl-1 A1 inh -0.2 and Beta2AR agonist -9.
For O=C(NCCCN1CCOCC1)c1onc(CSc2nc3ccccc3[nH]2)c1C(=O)NCCCN1CCOCC1 the results were E coli growth 0.68, HNF4A DNA FP 1.8, UCH37 DUB inh -0.8, LANA-H2B inh -1.7, Bfl-1 A1 inh 0.4 and Beta2AR agonist -8.
Screening C#CCSc1n[nH]c(=O)n1-c1cccc(C(F)(F)F)c1 returned E coli growth 0.68, HNF4A DNA FP 0.3, UCH37 DUB inh 2.1, Vif A3G -7%, LANA-H2B inh 8.9, Bfl-1 A1 inh 1.0 and Beta2AR agonist -1.
For Cc1sc(NC(=O)CN(Cc2ccc(F)cc2)C(=O)C(C)C)c(C(N)=O)c1C the results were E coli growth 0.69, HNF4A DNA FP 1.6, UCH37 DUB inh 0.0, Vif A3G -1%, LANA-H2B inh -0.2, Bfl-1 A1 inh 1.1 and Beta2AR agonist -5.
`COc1ccc(NC(=O)CCC(=O)N/N=C/c2cn(C)nc2C)cc1` gave HNF4A DNA FP 6.2, LANA-H2B inh -4.9, Bfl-1 A1 inh -0.5 and Beta2AR agonist 9.
Screening Cc1ccn2c(NC3CCCC3)c(-c3ccccn3)nc2c1 returned E coli growth 0.61, HNF4A DNA FP 4.2, UCH37 DUB inh 6.0, Vif A3G -7%, LANA-H2B inh -0.6, Bfl-1 A1 inh -0.6 and Beta2AR agonist 17.
Screening CCc1nnc(NC(=O)CSc2nnc(-c3ccccc3O)n2CC)s1 returned E coli growth 0.72, HNF4A DNA FP 0.5, UCH37 DUB inh 0.9, Vif A3G 4% and Beta2AR agonist -7.
`O=C(CSc1nnc(CNC(=O)c2c(F)cccc2F)o1)NCCc1ccccc1` gave E coli growth 0.71, HNF4A DNA FP 3.6, UCH37 DUB inh 2.0, LANA-H2B inh 4.2, Bfl-1 A1 inh 0.5 and Beta2AR agonist -5.
CCc1c(C)[nH]c2nc3ccccc3n2c1=O was read as E coli growth 0.65, HNF4A DNA FP -0.7, UCH37 DUB inh -31, Vif A3G 5%, LANA-H2B inh -0.5 and Beta2AR agonist 9.
CCCCC(NC(=O)c1ccc(C#N)cc1)C(=O)NCCC (stereo not drawn) was read as E coli growth 0.71, HNF4A DNA FP 0.1, UCH37 DUB inh 1.9, LANA-H2B inh -1.3, Bfl-1 A1 inh -0.2 and Beta2AR agonist -2.
Screening CCn1c(=O)c2cc(C(=O)N(C)CC(OC)OC)sc2c2ccccc21 returned E coli growth 0.64, HNF4A DNA FP 4.7, UCH37 DUB inh -127, Vif A3G -7%, LANA-H2B inh 2.4, Bfl-1 A1 inh 0.4 and Beta2AR agonist 28.
Nc1nc(SCc2ccc(Br)cc2)c2ncn(C3OC(CO)C(O)C3O)c2n1 (stereo not drawn) was read as E coli growth 0.65, HNF4A DNA FP 1.6, UCH37 DUB inh 1.3, Vif A3G -1% and Beta2AR agonist -5.
For COCCNC(=O)C(c1ccc(C)o1)N(C(=O)c1snc(C(N)=O)c1N)c1ccc(C)c(C)c1 (stereo not drawn) the results were E coli growth 0.67, HNF4A DNA FP 1.5, UCH37 DUB inh -17, Vif A3G 2%&1%, LANA-H2B inh 0.0, Bfl-1 A1 inh 1.4 and Beta2AR agonist 4.
`S=C(NCCC1=CCCCC1)NCc1ccco1` gave E coli growth 0.65, HNF4A DNA FP 7.8, UCH37 DUB inh 4.8, Vif A3G 22%, LANA-H2B inh -1.9, Bfl-1 A1 inh -0.4 and Beta2AR agonist 1.
`CC(C)(C)c1cc(OC(=O)c2ccncc2)ccc1O` gave E coli growth 0.74, HNF4A DNA FP 0.5, UCH37 DUB inh 1.2, Vif A3G 5%, LANA-H2B inh -2.2, Bfl-1 A1 inh 0.9 and Beta2AR agonist 9.
For CCN1CCN(CCCNC(=O)c2cc3cc4ccc(OC)cc4nc3o2)CC1 the results were E coli growth 0.69, HNF4A DNA FP 3.0, UCH37 DUB inh inactive, Vif A3G -9%, LANA-H2B inh -0.7, Bfl-1 A1 inh -0.3 and Beta2AR agonist 7.
CC(=O)Nc1sc(N/N=C\c2ccccc2)nc1-c1cccs1 was read as HNF4A DNA FP 13, Vif A3G 14%, LANA-H2B inh -1.0, Bfl-1 A1 inh 0.0 and Beta2AR agonist -14.
`CN(NC(=O)c1ccc(Cl)cc1)c1nc(-c2ccccc2)nnc1C(F)(F)F` gave E coli growth 0.83, HNF4A DNA FP 1.6, UCH37 DUB inh 2.8, Vif A3G 0%, LANA-H2B inh -5.3, Bfl-1 A1 inh -1.5 and Beta2AR agonist 6.
Cc1nnc(NC(=O)C2CCCN(S(=O)(=O)Cc3ccccc3)C2)s1 (stereo not drawn) was read as E coli growth 0.77, HNF4A DNA FP 0.6, UCH37 DUB inh 1.9, Vif A3G -1%, LANA-H2B inh 1.9, Bfl-1 A1 inh -0.1 and Beta2AR agonist -1.
`O=C(COC(=O)CNC(=O)c1ccc(Cl)cc1Cl)NCC1CCCO1` (stereo not drawn) gave E coli growth 0.64, HNF4A DNA FP -1.2, UCH37 DUB inh 2.8, Vif A3G 2%, LANA-H2B inh -1.9, Bfl-1 A1 inh -0.3 and Beta2AR agonist 0.
For c1ccc(N2CCN(c3nc(NCc4ccco4)c4ccccc4n3)CC2)cc1 the results were E coli growth 0.7, HNF4A DNA FP 10, UCH37 DUB inh -24, Vif A3G 4%, LANA-H2B inh 7.7, Bfl-1 A1 inh -0.6 and Beta2AR agonist 14.
O=C1C=C(NCCNc2c(F)c(F)c(CO)c(F)c2F)CCC1 was read as E coli growth 0.76, HNF4A DNA FP -2.2, UCH37 DUB inh 4.7, Vif A3G 12%, LANA-H2B inh -3.0, Bfl-1 A1 inh 1.7 and Beta2AR agonist 6.
Screening COC(=O)CC(CP(=O)(O)CN(C)C=O)C(=O)OC (stereo not drawn) returned E coli growth 0.65, HNF4A DNA FP -2.3, UCH37 DUB inh 8.8, Vif A3G -6%, LANA-H2B inh 1.3, Bfl-1 A1 inh 0.9 and Beta2AR agonist 0.
O=C(Nc1ccc(O)cc1)c1ccc(NC(=O)C2CCCO2)cc1 (stereo not drawn) was read as E coli growth 0.69, HNF4A DNA FP 3.8, UCH37 DUB inh 0.4, LANA-H2B inh -16, Bfl-1 A1 inh -1.4 and Beta2AR agonist 6.

Bioassay records: PubChem BioAssay, several laboratories
